# Screening data deposited in PubChem by several laboratories.
# Calb FLC – C. albicans growth modulation with fluconazole. AID 1979. growth inhibition, % (no concentration beside the values). actives 0.57% (n = 300,000). C. albicans CaCi-2 (fluconazole-resistant clinical isolate) + fluconazole, Alamar Blue growth, 48 h;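 active = most replicates above 75%; inconclusive = exactly half above 75%; inactive = most below 75%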;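 also: all wells also contain fluconazole at 8 µg/ml as a sub-toxic cotreatment; 0% = median of DMSO wells and 100% = median of geldanamycin control wells; wells of about 8 µL received 7.5 nL stock; the first replicate is given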
# Beta cell apopt – blocks beta cell apoptosis; AID 435005; actives 0.8% (n = 300,000); INS-1E cytokine-induced death, ATP luminescence, 48 h; percent of positive-control rescue, neutral wells zero; protection from apoptosis, % (concentration not given with the values);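 active = all replicates at 75% or more, or half of them and the mean; inconclusive = half reach 75% but not the mean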;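 also: 0% = cytokine-treated negative control wells and 100% = positive control rescue; higher means more ATP so stronger rescue from cytokine killing; wells of about 40 µL received 100 nL stock; the first replicate is given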
# LANA-H2A inh – blocks KSHV LANA binding to histone H2A/H2B. Q9QR71. cell-free LANA-H2A/H2B peptide, fluorescence polarization. inhibition, % (concentration not given with the values). actives 0.6% (n = 320,000). AID 2629; in the data active = inhibition mostly above about 10%, no sharp cut-off; inactive = mostly below about 6.7%;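 also: stock transfer was 7.5 nL into about 10 µL; 0% = median of vehicle wells and 100% = median of positive control wells; one replicate is shown; the record names a cut of 25% in any replicate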
# RanGTP-Impb inh – disruptors of Ran-importin-beta complex formation – biochemical, FRET, CFP-Ran, YFP-importin-beta, homogeneous, primary screen; cell-free CFP-Ran/YFP-importin-beta FRET ratio; inhibition, % (no concentration beside the values); actives 1.1% (n = 300,000);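 active = most replicates above 15%; inconclusive = exactly half above 15%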;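 also: 0% = DMSO wells and 100% = Ran loaded with GDP instead of GTP; wells of about 40 µL received 100 nL stock; the first replicate is given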
# B2AR ag – human beta-2 adrenergic receptor agonism by FAP. P07550. Am2.2-beta2AR cells, FAP receptor internalization, flow cytometry; reference of the scale not given here. response, % (no concentration beside the values). actives 0.43% (n = 340,000). AID 504454;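 active = response above a set limit, near 3 SD of response in nonfluorescent compounds, cut at about 42% in these data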;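 also: stock transfer was 100 nL into about 11 µL; a reference agonist was the positive control; negative values mostly stem from fluorescent compounds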
# Target sequence (P07550 whole entry, looked up): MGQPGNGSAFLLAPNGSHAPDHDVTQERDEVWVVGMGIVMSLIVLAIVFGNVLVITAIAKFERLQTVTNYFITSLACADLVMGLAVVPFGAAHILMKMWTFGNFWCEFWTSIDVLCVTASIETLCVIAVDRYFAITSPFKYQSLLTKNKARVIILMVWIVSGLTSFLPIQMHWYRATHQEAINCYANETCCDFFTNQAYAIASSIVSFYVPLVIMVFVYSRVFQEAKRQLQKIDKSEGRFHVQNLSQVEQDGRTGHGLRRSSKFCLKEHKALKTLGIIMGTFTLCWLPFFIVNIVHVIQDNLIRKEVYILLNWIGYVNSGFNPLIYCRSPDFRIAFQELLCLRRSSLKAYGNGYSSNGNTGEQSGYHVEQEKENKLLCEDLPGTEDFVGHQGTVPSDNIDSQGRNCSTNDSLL
# T cruzi inh – blocks replication of Trypanosoma cruzi; AID 1885; T. cruzi beta-gal in NIH3T3, luminescence, 90 h; inhibition, % (test concentration not listed); actives 1.4% (n = 300,000);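 active = mean inhibition across valid replicates above about 55%, limit read from the data; inconclusive = mean below that limit but half or more replicates reach it; inactive = mean below it, under half of replicates reach it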;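 also: signal also drops with host cell toxicity which is not excluded here; 0% = plate median of DMSO wells and 100% = zero luminescence signal; higher percent means less beta-gal luminescence so fewer parasites; stock transfer was 50 nL into about 50 µL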
# UCH37 inh – inhibitors of human deubiquitinating enzyme UCH37; purified proteasome/UCH37, Ub-AMC cleavage fluorescence; Q9Y5K5; actives 0.33% (n = 330,000); inhibition, % (concentration not given with the values);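 active = mean of two replicates above 20%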;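 also: 0% = compound-free wells with enzyme and 100% = wells lacking proteasome; stock transfer was 100 nL into about 20 µL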
# Target sequence (Q9Y5K5 whole entry, looked up): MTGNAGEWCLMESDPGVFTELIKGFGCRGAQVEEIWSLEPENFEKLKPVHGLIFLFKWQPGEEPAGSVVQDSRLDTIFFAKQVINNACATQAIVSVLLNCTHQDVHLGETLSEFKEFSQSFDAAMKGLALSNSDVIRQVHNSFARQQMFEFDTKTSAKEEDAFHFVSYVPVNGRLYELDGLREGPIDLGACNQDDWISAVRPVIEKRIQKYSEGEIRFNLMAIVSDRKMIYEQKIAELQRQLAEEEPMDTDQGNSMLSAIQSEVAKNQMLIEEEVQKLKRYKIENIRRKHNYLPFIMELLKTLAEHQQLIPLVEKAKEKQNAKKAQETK
#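 Material: human UCH37 enzyme supplied as purified proteasome complex. Measure: % inhibition of Ub-AMC cleavage fluorescence. Medium: pH 7.4 Tris-HCl (50 mM) with ovalbumin, ATP-MgCl2, DTT. Times: 30 min preincubation with enzyme, 25 min cleavage at room temperature. Detection: AMC fluorescence intensity at 355/460 nm.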
# A1 inh – inhibitors of the anti-apoptotic protein A1, read as caspase activation | MEF A1-2A-BIM cells, Caspase-Glo 3/7 luminescence, 3 h; percent of clofoctol response, vehicle zero | caspase activation, % (test concentration not listed) | actives 0.066% (n = 330,000);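 active = over half of replicate activation scores above 10%, or exactly half above 10 with the replicate mean above 10; inconclusive = replicate mean below 10 yet half the replicates above 10; inactive = over half of replicates below 10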;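 also: wells of about 30 µL received 50 nL stock; many hits fall short of the cut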
# Starred values were filed as active, the others as inactive; ? = inconclusive; · = no result given. Not a hit list, and some 4.3% of all compounds hit somewhere here.
SMILES,Calb FLC,Beta cell apopt,LANA-H2A inh,RanGTP-Impb inh,B2AR ag,T cruzi inh,UCH37 inh,A1 inh
CC(C)(O)C#Cc1ccc(C(=O)NCCc2ccc(S(N)(=O)=O)cc2)cc1,1,-1,4.8,4.2,9,8,1.4,0.4
CCN(CC)CCN(Cc1cc2cc3c(cc2[nH]c1=O)OCCO3)C(=O)NC1CCCCC1,-3,4,-0.2,-21,-6,14,-26,0.6
Cn1nnnc1Sc1ncnc2scc(-c3ccc(F)cc3)c12,23,-18,-0.8,1.3,10,-35,0.8,0.8
CC1CCc2c(sc(NC(=O)CCc3nc4ccccc4c(=O)[nH]3)c2C#N)C1 (stereo not given),·,11,1.2,·,-4,·,0.9,1.1
O=C(CN1C(=O)NC(Cc2ccccc2)C1=O)Nc1ccc(F)cc1 (stereo not given),1,-1,-0.6,4.1,0,-26,0.4,0.8
CCOC(=O)CSc1nc(C)cc(Oc2ccc(=O)n(C)n2)n1,-3,1,0.9,-2.1,0,-11,2.8,1.5
COc1cc2cc(CCO)oc(=O)c2cc1OC,·,-11,3.5,·,1,·,-0.6,2.3
CCCC(C)C(=O)NCc1ccccc1OC (stereo not given),-3,-5,-1.4,2.0,3,-9,-1.8,-0.6
Nc1nc2ccccc2n1/N=C/c1ccc(-c2ccccc2)o1,5,6,-0.9,?,10,40,·,-0.4
O=C(Nc1ccc(Oc2ccccc2)cc1)C1CCN(c2ncccn2)CC1,-8,0,3.2,-2.3,-9,-2,-0.5,0.7

# Full records from above:
# `CC1CCc2c(sc(NC(=O)CCc3nc4ccccc4c(=O)[nH]3)c2C#N)C1` (stereo not given) is listed as Calb FLC = ·; Beta cell apopt = 11; LANA-H2A inh = 1.2; RanGTP-Impb inh = ·; B2AR ag = -4; T cruzi inh = ·; UCH37 inh = 0.9; A1 inh = 1.1
# `CCN(CC)CCN(Cc1cc2cc3c(cc2[nH]c1=O)OCCO3)C(=O)NC1CCCCC1` is listed as Calb FLC = -3; Beta cell apopt = 4; LANA-H2A inh = -0.2; RanGTP-Impb inh = -21; B2AR ag = -6; T cruzi inh = 14; UCH37 inh = -26; A1 inh = 0.6

# Next part.
SMILES,Calb FLC,Beta cell apopt,LANA-H2A inh,RanGTP-Impb inh,B2AR ag,T cruzi inh,UCH37 inh,A1 inh
CCCCc1nnc(NC(=O)CCS(=O)(=O)Cc2ccccc2)s1,-2,-12,0.7,1.5,1,-19,-0.7,0.2
COc1ccc(Cl)cc1C(=O)NNC(=O)c1[nH]c(C)c(C(C)=O)c1C,·,0,2.1,·,2,·,·,1.9
CC(=O)NCCc1cc2ccc(C)c(C)c2[nH]c1=O,-1,-2,2.9,3.1,5,-7,-1.8,-0.1
Cc1ccc(S(=O)(=O)N2CCOCC2)cc1NC(=O)CSc1nc2ccccc2c(=O)n1Cc1ccccc1,-5,·,-1.4,-1.2,-4,19,-0.8,1.1
CCSC1=N/C(=C\c2ccc3c(c2)OCO3)C(=O)S1,0,-19,-10,7.6,15,-20,2.1,0.1
O=C1N=C(N2CCCC2)S/C1=C\c1cn[nH]c1-c1ccccc1,28,1,8.8,-17,·,-4,5.2,-0.8
COc1ccc(NC(=S)NC(=O)c2ccccc2)cn1,6,·,·,-1.1,-6,-12,3.2,·
Cc1ccc(CNC(=O)CN(C)S(=O)(=O)c2cnc[nH]2)cc1,0,-1,1.9,-3.6,2,9,5.9,0.0
O=S(=O)(Nc1ccccc1Br)c1cccs1,3,2,-0.9,-2.9,-3,-5,2.3,0.5
COc1ccc(C(C(=O)NC2CCCC2)N(Cc2cccnc2)C(=O)Cc2cccs2)cc1OC (stereo not given),-1,-1,-2.6,5.5,1,-3,2.3,1.2
O=C(Nc1ccccc1C(=O)NCCN1CCOCC1)c1cccc([N+](=O)[O-])c1,12,-3,-4.2,4.9,-9,2,-0.6,-1.2
O=C(c1ccc(F)c(S(=O)(=O)N2CCOCC2)c1)N1CCN(c2ccc(F)cc2)CC1,·,?,1.0,·,-1,·,4.2,0.1
CN1CCN(c2ccccc2NC(=O)c2c(F)cccc2F)CC1,-1,0,-1.5,-0.4,-2,-8,4.5,0.4
CCN(CC)c1ccc(/C=N/NC(=O)c2nnn(-c3nonc3N)c2C(C)C)c(O)c1,?,91*,0.1,?,19,28,·,-2.2
CC1(c2nnc(Cc3ccccc3)o2)CC(c2ccc(C#N)cc2)=NO1 (stereo not given),13,1,-0.3,-0.4,2,9,-0.7,0.3
O=C(Nc1ccccc1Oc1cccnc1)C1CCCN(Cc2ccccc2O)C1 (stereo not given),6,3,0.4,-3.9,-10,-7,5.9,0.5
O=C(CN(C(=O)c1csnn1)c1ccc2c(c1)OCCO2)NCc1ccccc1,-3,1,2.1,-1.6,6,-4,2.7,0.1
Cc1ccc(/C=C/c2ccc3cccc(O)c3n2)s1,-4,9,-3.3,-6.8,9,5,-2.4,-4.8
Cc1ccc(S(=O)(=O)NC(C)CCc2ccccc2)cc1 (stereo not given),2,4,2.0,1.8,5,3,5.9,0.0
CC1(C)Cc2nc3oc4c(N5CCOCC5)ncnc4c3cc2CO1,-5,-1,0.4,-0.9,-1,5,-16,0.8
Cc1oncc1-c1cn2ccccc2n1,3,0,1.5,2.0,-2,0,-8.8,-0.5
O=C(O)C1=C[C@@H](c2csc3ccccc23)C[C@@H](OCCCCO)O1,-3,-3,2.7,7.2,-6,-16,5.9,0.8
NC(=S)N=Nc1c(O)[nH]c2c(Br)cc(Br)cc12,52,-5,-1.1,1.0,22,17,9.4,0.0
COc1ccc(Oc2nccc(-c3ccccc3)c2C#N)cc1,-15,8,-1.5,5.0,-2,28,5.3,0.1
Cc1cc(C)cc(NC(=O)COC(=O)CCCC2=NS(=O)(=O)c3ccccc3N2)c1,6,-7,-5.1,2.2,-4,0,-0.5,-0.2
c1ccc(-c2cc3c(N4CCOCC4)ncnc3s2)cc1,39,7,-0.6,-4.0,-7,20,-90,1.1
CCCCN(C(=O)COC(=O)CSc1ccc([N+](=O)[O-])cc1)c1c(N)n(CCC)c(=O)[nH]c1=O,8,-6,6.0,-2.8,4,-9,3.6,-0.1
CC(=O)OCCc1[nH]c2ccccc2c1C,-5,-4,2.9,1.8,7,-7,·,0.2
O=C(Nc1ccnn1C1CCN(CCCc2ccccc2)CC1)c1cccc(F)c1,-17,1,3.2,3.3,5,19,2.1,0.0
O=C(Cn1cnc(S(=O)(=O)N2CCCC2)c1)Nc1ccc(OC(F)(F)F)cc1,-4,-2,0.9,4.5,7,-13,1.1,0.5
O=C(Cn1cccc1)NCc1cccs1,-6,2,0.8,-2.2,3,-24,5.9,0.2
CCOc1ccc(NC(=O)N(CCCN2CCOCC2)Cc2cccnc2)cc1,-1,-2,0.7,-4.0,-2,39,7.7,-0.1
CCCn1c(SCC(=O)Nc2ccc(C(=O)Nc3ccccc3OC)cc2)n[nH]c1=O,-1,-4,0.3,?,-10,-5,-0.7,-0.4
N#C/C(=C\c1ccc(OCc2ccc(F)cc2)cc1)C(=O)Nc1cccc(C(=O)O)c1,4,7,3.2,-1.9,2,-5,·,-4.8
CC1CCC(NC(=O)CCS(=O)(=O)c2ccc3c(c2)CC(C)N3C(=O)C2CC2)CC1 (stereo not given),18,-1,-2.5,6.7,·,-12,1.2,-2.2
Cc1nnc(SCCn2c(N3CCN(C)CC3)nc3c2c(=O)[nH]c(=O)n3C)s1,1,·,4.6,-1.9,1,6,6.1,0.6
CCc1cccc(C)c1NC(=S)N(CCN(C)C)C(C)c1cccnc1 (stereo not given),-15,1,2.3,2.4,-4,15,5.2,0.6
COc1cccc(-c2ncc3ccccc3c2COC(=O)c2cccs2)c1,·,1,-1.8,·,-9,·,1.2,-1.1
Cc1ccc(NCC(O)C(O)C(O)CO)cc1C (stereo not given),12,-3,0.4,3.9,-5,-16,5.0,1.1
Cc1ccc(S(=O)(=O)N(C)C)cc1NC(=O)C1CCC1,-1,3,-1.8,2.3,-6,-10,0.7,0.4
O=C(CCCOC(=O)c1ccc(O)cc1O)c1ccccc1,·,-5,-0.2,·,18,·,1.1,?
O=S(=O)(Nc1nnc(C(F)(F)F)s1)c1ccc(Cl)cc1,3,-3,2.8,-1.0,-8,-1,-0.5,0.3
Cc1ccc(CCNC(=O)c2nc(CS(=O)(=O)c3ccc(Cl)cc3)no2)cc1,-5,-2,0.6,2.4,2,-5,3.6,0.3
CCOC(=O)C1=C(C)N=C2SCCC(=O)N2[C@@H]1c1cccs1,10,-1,-4.9,2.8,-1,7,3.4,0.1
CC1=C(C)C(=O)N(CCC(=O)O)C1=O,-19,-1,-2.4,-1.1,-2,-26,2.6,-0.1
CCOC(=O)CN(C(=O)CSc1nnc2c(n1)[nH]c1ccc(OC)cc12)c1ccc(F)cc1,-1,-3,2.4,3.3,8,24,7.8,0.7
CCOC(=O)c1cnc2c(C)c(-c3ccccc3)[nH]n2c1=O,7,3,-0.1,5.3,2,-15,-1.0,-1.0
COc1cc(C(=O)NCCCNc2nc3cc(C)c(C)cc3cc2C#N)cc(OC)c1OC,28,4,3.7,50*,12,1,-75,0.3
CC(C)NC(=S)N1CCC(Cc2ccccc2)CC1,4,-5,-2.1,3.6,-2,0,6.3,1.1
COc1ccc(S(=O)(=O)NC(C(C)C)C(C)C)cc1OC,0,·,1.2,-2.0,1,-8,2.0,0.7
# (next part)
SMILES,Calb FLC,Beta cell apopt,LANA-H2A inh,RanGTP-Impb inh,B2AR ag,T cruzi inh,UCH37 inh,A1 inh
CS(=O)(=O)c1ccc2nc(NC(=O)CC3CCCC3)sc2c1,-2,-3,-2.2,5.9,2,17,0.1,-0.6
CC(C)c1ccc(CCNC(=O)c2cccc(S(=O)(=O)N3CCN(C)CC3)c2)cc1,-8,0,-3.8,2.1,11,19,0.9,-0.3
O=C(Cn1nnc(-c2ccc(Cl)cc2)n1)NCCC1=CCCCC1,6,0,2.6,-0.6,-12,12,2.9,-0.3
Cc1nn(Cc2ccccc2)c(C)c1NC(=O)CCCn1nc(C)c([N+](=O)[O-])c1C,-4,-8,-0.2,-3.0,8,7,2.2,-0.4
CC(C)NC(=O)NC(=O)COC(=O)c1cccc(OC(F)F)c1,-9,0,-3.3,?,2,-14,2.0,0.5
CCCCSCc1nc2ccccn2c1Br,-1,-6,4.3,8.0,-10,-10,1.1,-0.7
O=C(O)/C=C/C(=O)Nc1ccccc1C(=O)OCC(=O)c1ccc2c(c1)OCCO2,-3,-3,2.1,·,3,·,-14,-2.6
CCCN(CC1CC1)C(=O)COC(=O)c1oc2ccc(OCC)cc2c1C,·,-2,-0.7,·,-3,·,-22,-0.6
Cn1c(=O)c2c(nc(CN3CCOCC3)n2CC(O)CO)n(C)c1=O (stereo not given),3,-3,4.6,5.5,3,-10,1.1,2.0
COCCN(C(=O)CCc1ccccc1OC)c1nnc(-c2cccnc2)s1,28,11,-0.4,4.4,-1,11,3.9,1.0
OCCC1CN(Cc2nc(-c3ccccc3)cs2)CCN1C1CCCC1 (stereo not given),-5,1,1.6,-0.2,0,8,3.5,0.2
CC(C)c1nc(NCCO)c(C#N)c2c1CCCC2,-6,-9,-9.5,?,3,22,-28,-0.4
